gsp antagonist – antagonists of gsp mutant (McCune-Albright syndrome). gsp-mutant cells, cAMP HTRF, 30 min; control for the full effect not named in the record. Potency, µM (top dose mostly 76.9 µM), for inactives: top-dose activity change, negative = inhibition, usual class: inhibitors. 340,000 compounds, 0.4% hits; active = falling curve of any shape with a large fitted effect; inconclusive = falling curve, mostly with a smaller effect; inactive = flat or rising curve; cell line not stated here;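 note: intracellular cAMP measured with PDE inhibitor Ro 20-1724 present during compound exposure; potency is the fitted concentration of half-maximal effect; % is set by controls: 0 for no effect and ±100 for the full control effect; nearly all actives have a fitted effect of over 65% in size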
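HTRF cAMP measurement after 30 min RT detection following 30 min, 37C compound treatment alongside […] (added as 300 uM solution) in G418-selected cells seeded at 2000/well and grown 16–24 h.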
gsp agonist – agonists of gsp mutant (McCune-Albright syndrome); Potency, µM (doses to about 76.9 µM), inactives show top-dose activation (cAMP increase), hits mostly activators; AID 624287; 340,000 compounds, 0.13% hits; gsp mutant cells, cAMP HTRF, 30 min; control for the full effect not named in the record; active = well fitted activation curve with a large enough effect; inconclusive = small, poorly fitted or top-dose-only effect, or another doubt; inactive = no such curve, though single readings can be large or run the other way; cell line not stated here;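 note: phosphodiesterase inhibitor Ro 20-1724 added with compounds to block cAMP breakdown; potency is the fitted concentration of half-maximal effect; nearly all actives have a fitted effect of over 60% in size; about a fifth of the inactives were tested at one dose only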
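Cells stably selected in G418 were plated at 2000/well, grown 16-24 hr, then given compounds in DMSO with the PDE inhibitor […] (300 uM solution added) for 30 min at 37C; cAMP was read by HTRF.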
TRPML1 ag – agonists of human TRPML1 channel; 410,000 compounds, 0.12% hits; activation, % (concentration not given with the values); TRPML1-expressing cells, Ca2+ dye fluorescence, FDSS; host cell line not named in the record; reference of the full effect not given here; in the data active = activation above about 50%; inconclusive = about 30% to 50%; inactive = below about 30%; note: 0% is about no effect; the text of the record puts the active cut at 80%
Target sequence (Q9GZU1 whole entry, looked up): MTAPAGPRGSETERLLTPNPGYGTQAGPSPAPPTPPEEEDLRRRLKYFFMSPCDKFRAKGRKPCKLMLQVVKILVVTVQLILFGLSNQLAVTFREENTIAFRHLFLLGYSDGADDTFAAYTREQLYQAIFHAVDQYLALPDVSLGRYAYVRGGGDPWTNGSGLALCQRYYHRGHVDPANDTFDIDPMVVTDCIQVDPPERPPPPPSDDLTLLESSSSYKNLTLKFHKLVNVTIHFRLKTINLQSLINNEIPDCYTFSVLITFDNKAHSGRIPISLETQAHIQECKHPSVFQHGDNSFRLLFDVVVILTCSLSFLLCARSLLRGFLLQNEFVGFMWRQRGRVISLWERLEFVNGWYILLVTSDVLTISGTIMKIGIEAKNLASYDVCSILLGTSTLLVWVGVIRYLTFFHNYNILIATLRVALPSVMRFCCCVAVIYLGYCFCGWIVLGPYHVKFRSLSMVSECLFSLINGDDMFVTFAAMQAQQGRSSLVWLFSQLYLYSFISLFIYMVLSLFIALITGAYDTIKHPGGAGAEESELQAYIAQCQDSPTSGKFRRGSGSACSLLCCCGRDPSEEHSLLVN
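Tet-induced TRPML1-DL cells, 1,500 per well, cultured overnight, were loaded with a no-wash Ca2+ dye for 45–90 min. Calcium fluorescence was recorded on the FDSS for 110 s after compound addition, before the EC80 agonist (4 uM 54-4) was added.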
TRPML1 blocker – inhibitors of human TRPML1 channel. TRPML1-inducible cells, Ca2+ dye fluorescence, FDSS; stronger effect = lower value; inhibition of EC80 agonist-evoked calcium signal. Q9GZU1. 390,000 compounds, 0.02% hits. activity change, negative = inhibition, % (test concentration not listed); in the data active means activity change below about -50%; inconclusive means about -30% to -50%; inactive means above about -30%;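 note: stimulus is agonist 54-4 at its EC80 concentration; % is set by controls: 0 for no effect and ±100 for the full control effect; compound concentration not given in the record; the text of the record puts the active cut at -80%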
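Tet-induced TRPML1-DL cells loaded with Ca8 no-wash calcium dye were read kinetically on FDSS. Compound addition was followed by EC80 agonist 54-4 (4 uM final); inhibition was read over 110 s.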
ClpP mod – qHTS Assay for Activators of ClpP; Potency, µM (series often up to 57.5 µM), for the others: top-dose activity change, negative = active; AID 651965, 2013; purified B. subtilis ClpP, FRET peptide cleavage, 20 min; 340,000 compounds, 1.9% hits; active = well fitted falling curve with a large enough effect; inconclusive = small, poorly fitted or top-dose-only effect; inactive = no such curve, though single readings can be large or run the other way; note: potency is the fitted concentration of half-maximal effect; the source files actives as falling curves though it sought activators and does not explain the sign; nearly all actives have a fitted effect of over 65% in size; many hits overshoot -100%
Target sequence (P80244 whole entry, looked up): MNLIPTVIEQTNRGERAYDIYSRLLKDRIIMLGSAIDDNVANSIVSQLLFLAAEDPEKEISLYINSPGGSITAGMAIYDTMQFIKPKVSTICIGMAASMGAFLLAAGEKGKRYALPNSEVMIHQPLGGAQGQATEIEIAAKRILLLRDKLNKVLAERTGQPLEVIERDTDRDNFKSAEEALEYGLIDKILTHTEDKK
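FRET quenching reversal measured ClpP activation: 10 microg/mL B. subtilis ClpP at pH 8 with the FRET-FV decapeptide, read at 430 nm after 320 nm excitation. The 20-min minus 0-min signal was scaled between DMSO/no-enzyme wells and ADEP (5.8 microM final).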
Menin-MLL FL inh – displaces fluorescein MLL peptide from human menin. AID 1766. Fluorescence polarization, fluorescein-MLL peptide displacement from menin. FP activity change, % at 61.4 µM. 290,000 tested, under 10 active; inconclusive = falling polarisation curve, or a change in total fluorescence; inactive = total fluorescence flat and polarisation flat or rising; no compound was filed as active; the % refers to the polarisation; negative = inhibition;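 note: % of control where 0% means no effect; inhibitors lower the polarisation; unlabelled MLL peptide was the positive control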
* hit, by the source's call; ? = inconclusive; / = no result given; [ ] = another dose, or the depositor's remark. Compounds were not picked by outcome; about 2.1% have a hit in one of these screens.

Compound,Menin-MLL FL inh,TRPML1 blocker,gsp antagonist,TRPML1 ag,gsp agonist,ClpP mod
COC(=O)CC1(C(=O)OC)Oc2ccc(Br)cc2C(=O)N1c1cccc(Cl)c1Cl (configuration not stated),2.4,6.6,?,1.3,-1.8%[15.4 µM],/
O/N=C/c1ccccc1OCc1ccccc1F,3.7,-9.4,-9.8%,2.2,-15.4%,-1.4%
O=C(CC1CCCCC1)NC1CCCC1,1.0,-1.9,9.6%,-0.3,9.2%,-3.9%
CN(C(=O)c1nn(C)c2c1CSc1ccccc1-2)c1ccccc1Cl,/,45.8,-17.2%,0.5,26.9%,-1.2%
CC(C)(O)CCC(C)(C)O,/,17.2,2.0%,-0.1,/,-0.1%
O=C(Nc1nc2ccc(F)cc2s1)c1nc(SCc2ccccc2F)ncc1Cl,/,0.7,/,-0.4,/,0.2%
Cc1ccc(SCCC(=O)NNC(=O)c2ccccc2F)cc1,/,-10.4,1.4%,-1.2,26.9%,/
CCCOc1cc(C)nc(-c2ccccc2O)n1,4.2,-8.4,-3.1%,-0.8,-11.1%,1.2%
COc1ccc(Cl)cc1C(=O)NNC(=O)c1nn(C)c(=O)c2ccccc12,/,20.8,-8.2%,-1.1,14.0%,-2.1%
COC(=O)c1cccc(NC(=S)NCCC2=CCCCC2)c1,4.5,-7.1,1.6%,1.1,?,-1.8%
Cc1ccc(N(CC(=O)N/N=C/c2cccs2)S(C)(=O)=O)cc1Cl,1.7,-13.2,7.2%[15.4 µM],0.1,8.5%,-0.9%
OC(CNCc1ccccc1)Cn1ccc2ccccc21 (configuration not stated),5.1,-0.7,-5.2%,1.3,26.5%,-5.9%
CCn1c(COc2ccc3c(c2)OCO3)nnc1SCC(=O)c1ccc(Cl)cc1,-1.3,-4.1,3.7%,0.3,24.0%,0.7%
O=C(NCC(=O)N(Cc1ccc(F)cc1)C(C(=O)NCC1CCCO1)c1ccccc1)c1ccco1 (configuration not stated),0.2,2.4,2.0%,5.2,-31.7%[15.4 µM],/
CC(C)(C)c1cc(C(=O)O)c(CN2CCCCC2)o1,1.3,-4.8,-1.5%,-0.3,1.4%,1.0%
COc1ccc(Cn2c(=S)[nH]c3ccsc3c2=O)cc1,3.9,2.0,-4.4%,-0.7,0.3%[15.4 µM],-0.1%
COc1ccc(-c2nnc3ccc(SCC(=O)NCC4CCCO4)nn23)cc1 (configuration not stated),4.4,2.2,4.6%,-0.2,?,1.2%
COc1ccc(Nc2nc3ccccc3nc2NS(=O)(=O)c2cccs2)c(OC)c1,1.3,-17.3,-9.0%,0.9,-13.0%,-2.1%
COc1ccc(Br)cc1CNc1ccccc1,-5.1,/,-8.3%,/,28.2%,-4.6%
Cc1ccc(/C=N/NC(=O)c2ccc(Cn3cc([N+](=O)[O-])cn3)o2)cc1,5.1,-7.4,-3.5%,0.1,1.6%,-3.3%
CCn1cc(C(=O)N[C@@H](C)C(=O)NCCCn2ccnc2)c(=O)c2cc3c(cc21)OCO3,/,1.1,18.1%,-0.3,?,3.3%
CCOC(=O)C1CCCN(c2nc3ccccc3nc2C(C#N)C(=O)OC(C)COC)C1 (configuration not stated),12.3,9.9,2.1%,2.6,-28.9%,-1.2%
CC(=O)c1c(C)[nH]c(C(=O)NCc2ccc(Cl)cc2)c1C,/,-16.5,/,-0.1,-86.2%[inhibitor],-5.1%
CCC(=O)N1CCc2cc(Br)cc(S(=O)(=O)CCC(=O)NCc3ccccc3OC)c21,/,3.0,/,-1.1,/,-0.7%
O=C(CCCCCN1C(=O)c2ccccc2C1=O)Nc1ccc(C(=O)O)cc1,1.3,-14.2,7.5%,0.6,-6.3%,-1.4%
O=C(CN1CCCCC1)N1c2ccccc2CCc2ccccc21,0.0,1.2,-10.6%,0.1,-2.4%,-16.9%
COc1ccccc1CC(=O)Nc1nc(-c2ccc(F)c(F)c2)cs1,-0.5,-8.8,?,-0.2,-6.0%[15.4 µM],/
CC(C)N(Cc1ccccc1)C(=O)COC(=O)CCC(=O)c1ccc(F)cc1,/,-8.7,-7.7%,-0.2,8.9%,1.9%
COCCNC(=O)c1nc2ccccc2s1,-1.8,1.6,-0.7%,-0.9,0.8%,/
COc1ccc(C(=O)N[C@H](C(=O)Nc2ccc(S(=O)(=O)N3CCOCC3)cc2)C(C)C)cc1,-0.5,/,-15.5%,/,-12.3%,1.0%
Cc1ccc(Cn2c(SCc3ccc(C(=O)N4CCCCCC4)cc3)nc3ccncc32)cc1,/,12.4,/,1.6,/,-5.6%
CN(c1ccccc1)c1ccc(/C=N/NC(=O)CC#N)cc1,?,-10.2,-2.3%,1.0,-26.6%,?
CCc1ccc(Nc2nnc(SCc3cc(=O)n4ccsc4n3)s2)cc1,-2.1,13.0,-3.2%,3.1,19.8%,-2.7%
O=c1cc(N2CCOCC2)[nH]c(=O)n1Cc1ccc(F)cc1,3.6,3.0,5.9%,-0.2,?,0.7%
COCCN1Cc2cccc(C(=O)NCc3ccc4c(c3)OCO4)c2C1=O,0.2,-8.0,7.9%,0.3,-5.0%,4.1%
COC(=O)c1ccc(S(=O)(=O)N2C3CCC2CC(NC(=O)C2CC2)C3)cc1 (configuration not stated),-0.8,-10.5,-8.3%,-0.4,?,0.8%
Cc1ccc(NC(=O)C(c2ccccc2)N2CCN(CC(=O)NC3CC3)CC2)cc1 (configuration not stated),/,9.3,-4.2%,-0.1,?,-1.7%
CCS(=O)(=O)Nc1cccc(C2=NN(S(=O)(=O)CC)C(c3ccccc3)C2)c1 (configuration not stated),13.7,-7.8,-2.8%,-0.7,-29.0%,0.0%
O=C(N1CCCCCC1)N1CCN(S(=O)(=O)N2CCOCC2)CC1,3.3,23.5,6.7%,-0.1,?,-3.0%
COC(=O)C1CCN(C(=O)c2ccc3nccnc3c2)CC1,/,-10.7,3.3%,-0.6,?,0.5%

3 entries out of the list, arranged by SMILES length, lowest first:
Compound,Menin-MLL FL inh,TRPML1 blocker,gsp antagonist,TRPML1 ag,gsp agonist,ClpP mod
COC(=O)C1CCN(C(=O)c2ccc3nccnc3c2)CC1,/,-10.7,3.3%,-0.6,?,0.5%
CCc1ccc(Nc2nnc(SCc3cc(=O)n4ccsc4n3)s2)cc1,-2.1,13.0,-3.2%,3.1,19.8%,-2.7%
COc1ccc(C(=O)N[C@H](C(=O)Nc2ccc(S(=O)(=O)N3CCOCC3)cc2)C(C)C)cc1,-0.5,/,-15.5%,/,-12.3%,1.0%

The list continues:
Compound,Menin-MLL FL inh,TRPML1 blocker,gsp antagonist,TRPML1 ag,gsp agonist,ClpP mod
Cc1ccccc1C(=O)N1CCN(c2ccc(NC(=O)c3ccc4c(c3)OCCO4)cc2)CC1,-0.9,11.8,35.5µM*,-0.6,-7.6%[15.4 µM],1.2%
Cc1cccc(C)c1-n1nnnc1S(=O)(=O)Cc1ccccc1Cl,-5.0,-0.1,-6.8%,-0.3,9.2%,-2.5%
CCOc1ccccc1CNC(=O)c1[nH]c2ccccc2c1Sc1ccccc1,/,5.9,/,0.1,/,-28.4%
Cc1ccc(CNC(=O)COC(=O)c2cccc(S(=O)(=O)N3CCCCC3)c2)cc1,/,-6.7,?,1.2,-24.8%,1.3%
CCSC1=NCN(CCCC(=O)O)CN1,3.2,7.2,13.2%,-0.9,37.5%,2.1%
CC1CCCC(NC(=O)c2ccc3c(c2)OCCO3)C1C (configuration not stated),/,2.9,-9.5%,-0.5,19.7%,2.0%
CCNC(=O)N1CCCC(C(=O)c2ccc(OC)c(OC)c2)C1 (configuration not stated),1.5,-10.1,7.7%,0.2,5.4%,/
c1ccc(CNc2nc3ccccc3[nH]2)cc1,-0.6,-7.8,5.7%,0.7,-14.6%,0.8%
C=CCn1c(N2CCCC2)nc2c1c(=O)n(C)c(=O)n2C,-1.4,14.2,0.9%,-0.2,-2.5%[15.4 µM],-0.1%
O=C(COc1ccccc1)Nc1nc2cc3c(cc2s1)OCCO3,1.4,5.7,-31.0%,1.3,-1.6%,-9.2%
COC(=O)c1cc(-c2ccccc2)sc1N,1.2,-0.1,11.3%,0.6,14.1%,-0.7%
CC(=O)C1=C(O)C(=O)N(Cc2ccccc2)C1c1ccccc1F (configuration not stated),0.6,11.8,-5.7%,-1.2,10.7%,-2.5%
Clc1cc(NC2CCCCC2)ncn1,-16.7,21.6,-13.3%,-0.5,16.0%[15.4 µM],0.0%
CCOc1cc(/C=N/Nc2ccc(C(=O)O)cc2)ccc1OC(=O)c1ccccc1C,1.9,0.5,-23.1%,0.7,-0.6%,-11.2%
CCCc1cc(=O)[nH]c(SCC(=O)NC2CCCc3ccccc32)n1 (configuration not stated),8.8,5.1,-4.8%,-0.2,-9.3%,0.7%
CCOC(=O)c1cc2sccc2n1CC(=O)C(C)(C)C,0.5,9.9,-0.4%,-0.6,23.7%[15.4 µM],/
O=C(CCCOc1ccc(Cl)cc1Cl)Nc1ccccn1,0.2,22.6,-6.8%,4.4,?,/
O=C(NC1CC1)C1CCN(S(=O)(=O)c2cc([N+](=O)[O-])ccc2Cl)CC1,/,7.1,-11.6%,-0.1,-27.6%,-0.8%
O=C(CS(=O)(=O)Cc1ccccc1)Nc1ccc(S(=O)(=O)N2CCOCC2)cc1,1.7,15.9,6.9%,-0.2,-1.1%,1.0%
O=C(Nc1ccc(Cl)cc1C(F)(F)F)c1ccccc1Cl,0.2,-3.4,4.0%,-0.9,-1.9%[15.4 µM],0.2%
O=c1/c(=C/c2ccco2)sc2n1CN(c1ccccc1)CN=2,5.2,10.6,-21.6%,-0.9,-19.6%,25.1µM*
O=C(NCc1ccncc1)C(=O)N/N=C/c1cccnc1,-0.8,8.8,7.7%,-0.6,-3.9%[15.4 µM],/
COc1ccc(/C=N\NC(=S)SCN2C(=O)C3CCC(C)(C2=O)C3(C)C)cc1 (configuration not stated),/,0.7,-6.6%,-1.2,7.2%,-3.8%
Nc1ccc(O)c2c1C(=O)c1ccccc1C2=O,-1.5,/,-9.6%,/,/,2.5%
O=C(Cc1coc2cc3c(cc12)CCC3)OCc1cc(=O)n2c(n1)sc1ccccc12,4.0,-11.9,5.7%,0.8,3.4%,93.1%

Compound activity as filed in PubChem BioAssay.
